Assay outcomes as filed in PubChem.
Ecoli rRNA inh = reduced GFP signal of wild-type E. coli, primary screen, bacterial rRNA inhibitor project, GFP/RFP fluorescence, OD600, single point | E. coli WT GFP vs humanized-ribosome RFP mutants, 24 h; hits give low values; DMSO median 0, no signal -100 | GFP signal change (wild-type ribosome), % (concentration not given with the values) | 350,000 compounds, 1.6% hits | AID 720706, 2013;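 active means significant combined selectivity score with lowered wild-type GFP, culture density cut under 30%, mutant RFP and density less affected; inactive means any of these conditions unmet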; further: one replicate is shown; some compounds called inactive have numbers as strong as hits
ALR H2O2 inh = inhibitors of human ALR sulfhydryl oxidase, primary screen, biochemical, H2O2 detection, HRP-luminol luminescence, single point; FAD-linked sulfhydryl oxidase ALR (Homo sapiens), P55789; 290,000 compounds, 3.8% hits; inhibition, % (no concentration beside the values); purified ALR, DTT oxidation;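 active means mean and each replicate at 75% or more; inconclusive means only one of the two met; inactive means neither met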;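 further: stock transfer was 7.5 nL into about 7.5 µL; 0% = neutral wells and 100% = wells with inactivated enzyme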
Target sequence (P55789 whole entry, looked up): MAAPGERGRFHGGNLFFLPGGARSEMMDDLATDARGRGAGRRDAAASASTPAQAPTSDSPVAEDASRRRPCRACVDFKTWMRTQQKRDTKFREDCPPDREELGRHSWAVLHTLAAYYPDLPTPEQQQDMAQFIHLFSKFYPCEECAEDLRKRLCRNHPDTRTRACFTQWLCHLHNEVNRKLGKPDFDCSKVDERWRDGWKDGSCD
FGF22 binding = binders of human FGF22 protein, primary screen, FGF22 synaptogenesis inhibitor project, biophysical, thermal shift, single point | Fibroblast growth factor 22 (Homo sapiens), Q9HCT0 | 340,000 compounds, 1.5% hits | calls only at 9.99 µM | recombinant FGF22 thermal shift, SYPRO orange fluorescence; percent of sucrose octasulfate shift, DMSO zero;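 active means melting point raised past a set limit in the mean and every replicate; inconclusive means no clear call; three in four hits are not shown here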
B2AR ag = beta2AR agonists driving receptor internalization, primary screen, cell-based, FAP fluorogen, flow cytometry; AID 504454, 2011; response, % (no concentration beside the values); Beta-2 adrenergic receptor (Homo sapiens), P07550; 340,000 compounds, 0.43% hits; Am2.2-beta2AR cells; reference of the scale not given here;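 active means response above a set limit, near 3 SD of response in nonfluorescent compounds, cut at about 42% in these data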;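 further: stock transfer was 100 nL into about 11 µL; a reference agonist was the positive control; negative values mostly stem from fluorescent compounds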
Ecoli growth = E. coli growth inhibition, primary screen, OD600; OD600 absorbance (test concentration not listed); Escherichia coli growth, 23 h; hits give low values; 330,000 compounds, 0.21% hits;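 active means OD600 absorbance below the run mean of sample wells minus 3.6 SD, in any replicate, cut at about 0.56 in these data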;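 further: stock transfer was 300 nL into about 60 µL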
HNF4A DNA FP = change in binding of human HNF4A to DNA, primary screen, biochemical, fluorescence polarization, FITC-DNA. 1 h. activity change, % at 10 µM. 360,000 compounds, 0.3% hits. AID 1224865, 2016; in the data active means activity change above about 30%, passing the limit was not always enough;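 further: controls were the assay level and a saturating level of protein; the project sought stronger binding though the title names inhibitors; some compounds called inactive have numbers as strong as hits; positive values seem to mean higher polarization but the record does not say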
Target sequence (P41235 whole entry, looked up): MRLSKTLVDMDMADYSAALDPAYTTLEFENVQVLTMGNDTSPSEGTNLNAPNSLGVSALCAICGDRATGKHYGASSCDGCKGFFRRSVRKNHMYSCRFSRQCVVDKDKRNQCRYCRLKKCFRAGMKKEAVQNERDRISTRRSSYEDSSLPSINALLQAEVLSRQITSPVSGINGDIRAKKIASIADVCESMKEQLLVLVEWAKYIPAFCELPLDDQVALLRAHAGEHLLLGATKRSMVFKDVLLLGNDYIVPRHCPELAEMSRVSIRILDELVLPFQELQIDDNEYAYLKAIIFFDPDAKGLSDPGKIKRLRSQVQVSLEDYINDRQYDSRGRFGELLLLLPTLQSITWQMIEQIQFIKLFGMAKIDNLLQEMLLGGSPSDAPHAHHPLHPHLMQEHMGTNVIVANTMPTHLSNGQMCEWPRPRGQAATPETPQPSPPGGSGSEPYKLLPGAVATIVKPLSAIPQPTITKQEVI
UCH37 DUB inh = inhibitors of human UCH37 deubiquitinase, primary screen, biochemical, Ub-AMC cleavage, fluorescence. Ubiquitin carboxyl-terminal hydrolase isozyme L5 (Homo sapiens), Q9Y5K5. purified proteasome/UCH37. inhibition, % (concentration not given with the values). 330,000 compounds, 0.33% hits. AID 588478, 2011;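 active means mean of two replicates above 20%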;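 further: 0% = compound-free wells with enzyme and 100% = wells lacking proteasome; stock transfer was 100 nL into about 20 µL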
Target sequence (Q9Y5K5 whole entry, looked up): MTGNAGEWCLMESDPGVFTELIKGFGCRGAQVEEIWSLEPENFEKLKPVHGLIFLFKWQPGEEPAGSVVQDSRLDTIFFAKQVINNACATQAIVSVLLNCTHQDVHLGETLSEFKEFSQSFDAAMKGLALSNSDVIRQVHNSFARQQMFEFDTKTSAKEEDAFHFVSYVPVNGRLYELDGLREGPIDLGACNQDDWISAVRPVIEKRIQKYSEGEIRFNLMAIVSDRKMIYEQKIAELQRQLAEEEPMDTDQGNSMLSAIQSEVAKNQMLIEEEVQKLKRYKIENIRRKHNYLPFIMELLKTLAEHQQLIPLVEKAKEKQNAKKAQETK
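Assay system: Proteasome-bound UCH37. Buffer or medium: pH 7.4 Tris-HCl (50 mM) with ovalbumin, ATP-MgCl2, DTT. Incubation: 30 min preincubation with enzyme, 25 min cleavage at room temperature. Measured by: fluorescence, ex 355 nm, em 460 nm. Read-out basis: percent inhibition. Control set: wells without proteasome as full block, compound-free enzyme plus substrate as uninhibited.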
Ecoli rRNA inh OD600 = further read-out of Ecoli rRNA inh, marked with its call; OD600 change, %; measured here: OD600 growth;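 optical density of the mix in the first replicate; 0 = DMSO median and -100 = no signal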
Ecoli rRNA inh RFP = further read-out of Ecoli rRNA inh, marked with its call; RFP signal change, %; measured here: RFP humanized mutant strains;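 first replicate; 0 = DMSO median and -100 = no signal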
* marks the source's active call; other numbers are inactive results; i = inactive; ? = inconclusive; · = not tested or not shown. The list is partial (hit frequency here may not be typical).

SMILES	Ecoli rRNA inh	Ecoli rRNA inh OD600	Ecoli rRNA inh RFP	ALR H2O2 inh	FGF22 binding	B2AR ag	Ecoli growth	HNF4A DNA FP	UCH37 DUB inh
CC(C)CN1CCN(Cc2c(F)cccc2Cl)CC1CCO (centres undefined)	5.6	6.7	-0.8	-0.8	i	-1.5	0.673	0.8	3.8
CCCCn1c(NS(=O)(=O)c2ccc(C)cc2)c(C(=O)OCC)c2nc3ccccc3nc21	-22.4*	0.6*	4.3*	56.3	i	3.4	·	1.6	·
Cc1cc(NC(=O)COC(=O)c2c(C)nn(Cc3ccccc3)c2Cl)no1	·	·	·	-0.9	·	-2.0	0.722	-0.8	5.5
COc1cccc(C2=NOC(C(=O)N3CCC4(CC3)OCCO4)C2)c1 (centres undefined)	·	·	·	-0.9	·	-5.4	0.648	-2.5	1.1
NC(N)=N/N=C/c1ccc(N2CCOCC2)cc1	9.5	15.7	0.8	·	i	-1.3	·	-3.3	·
O=C(Nc1ccc(OC(=O)N2CCCCC2)cc1)N1CCOCC1	14.9	-2.9	2.5	-8.7	i	-3.5	0.718	-6.0	3.7
COC(=O)Cn1cc(C=C2C(=O)NC(=O)NC2=O)c2ccccc21	24.1	30.9	3.5	5.5	i	-0.2	·	2.1	·
CC12CC1(C)C(=O)N(c1cc(Cl)cc(Cl)c1)C2=O (centres undefined)	-2.2	2.7	-0.2	·	i	-0.7	0.65	-4.6	1.3
CC(=O)c1cccc(NC2=NCC(C)S2)c1 (centres undefined)	4.6	13.6	-1.6	7.0	i	-5.1	0.75	-1.9	5.8
O=C1NC(=O)N(CCc2ccc(F)cc2)C(=O)/C1=C/c1cccs1	0.3	-1.7	56.8	11.3	i	29.4	0.705	3.3	1.8
O=C(CCCCCn1c(=S)[nH]c2ccccc2c1=O)N1CCC2(CC1)OCCO2	·	·	·	?	·	10.5	0.664	-4.3	5.3
OCC[N+]12CCC(CC1)C(C(O)(c1ccccc1)c1ccccc1)C2 (centres undefined)	12.9	-3.2	-0.5	-2.7	i	0.7	0.703	0.6	4.7
COCCN1C(=O)NC(=O)/C(=C\c2ccc(F)cc2)C1=O	13.8	20.4	-12.5	-18.8	i	-3.8	0.688	1.2	1.8
CC(=NCCc1ccccc1)c1c(O)n(C)c(=O)n(C)c1=O	-0.4	-13.6	2.0	·	i	-1.5	0.691	6.2	2.5
CN1CC(C(=O)c2ccc(Cl)cc2)C(c2ccc(N(C)C)cc2)C1 (centres undefined)	-14.8	-27.4	-1.5	·	·	2.1	0.637	-2.3	3.2
Cc1ccc(CN2Cc3ccc(Br)cc3-n3nncc3C2)cc1	-13.6	-36.0	-6.8	·	i	·	·	0.5	·
CC(=O)Nc1ccc(OC(=O)N2CCCCC2)cc1	·	·	·	-5.7	·	1.3	0.7	0.0	1.9
O=C1/C(=C\c2ccc([N+](=O)[O-])cc2)N2CCC1CC2	12.7	-1.3	-1.0	-1.7	i	6.5	0.681	1.1	2.4
O=C(CCC(=O)N1CCOc2ccc(Cl)cc21)N1CCC2(CC1)OCCO2	-0.1	-8.1	-7.3	-4.1	i	3.2	0.715	0.3	-1.4
CCOc1cc(C=C2C(=O)NC(=O)NC2=O)ccc1OS(=O)(=O)c1ccccc1	·	·	·	·	·	8.2	0.772	2.8	20.3*
O=P(Oc1ccccc1)(Oc1ccccc1)c1ccccc1	7.2	3.7	-4.1	-12.9	i	1.6	0.694	0.1	5.9
CCOC(=O)c1ccc(NC(=O)N2CC3CC(C2)c2cccc(=O)n2C3)cc1 (centres undefined)	2.2	5.3	1.0	-6.9	i	3.0	0.718	1.8	2.5
O=C(C[N+]12CCN(CC1)CC2)NCCc1ccc(Cl)cc1Cl	32.2	19.6	6.3	-5.6	i	-1.1	0.685	1.1	-0.7
Brc1ccc(-[n+]2c(-c3ccccc3)cc(-c3ccccc3)cc2-c2ccccc2)cc1	-57.8	-80.9	-36.5	-14.3	i	4.2	0.636	-0.9	0.9
O=C1CN=C(c2ccccc2)c2cc(Br)ccc2N1	-22.9	-38.8	-4.3	-9.6	i	-6.8	0.688	-1.4	6.2

Following part
SMILES	Ecoli rRNA inh	Ecoli rRNA inh OD600	Ecoli rRNA inh RFP	ALR H2O2 inh	FGF22 binding	B2AR ag	Ecoli growth	HNF4A DNA FP	UCH37 DUB inh
Cn1cc(C(=O)NCc2ccccc2)c2ccccc21	6.2	-2.8	-10.3	·	i	-3.6	0.658	0.8	1.5
Cc1ccc(N2C(=O)CC(=O)NC2=O)cc1	14.1	12.6	-7.7	-54.1	i	-3.0	0.707	3.1	2.4
O=C(O)C1C2CCC(O2)C1C(=O)Nc1ccc(Cl)cc1 (centres undefined)	19.9	18.8	0.1	1.7	i	5.8	0.698	1.0	1.9
CC1=CC(C)CC(C)OC(=O)CC(c2ccc(O)cc2)NC(=O)C(Cc2c(Br)[nH]c3ccccc23)N(C)C(=O)C(C)NC(=O)C(C)C1 (centres undefined)	10.5	-5.5	0.3	·	i	49.8*	·	0.8	·
CCN(CC)C(=O)c1ccc(NC(=O)CN2CCc3cc(OC)c(OC)cc3C2)cc1	-1.5	-16.8	-0.8	0.2	i	6.3	0.625	-0.6	-5.5
O=C(CSC1c2ccccc2-c2ccccc21)N/N=C/c1ccccc1C(=O)O	6.3	1.5	0.1	-0.1	i	1.5	·	3.2	·
O=[As](O)(O)c1ccc(N=Nc2ccc(O)cc2)cc1	5.3	17.7	1.7	98.8*	i	3.4	0.686	1.9	20.0
COc1ccc(S(=O)(=O)N2CC3CC(C2)c2cccc(=O)n2C3)cc1 (centres undefined)	14.3	8.1	-7.2	?	i	-2.3	0.686	-1.7	1.1
CCOc1cc2c(cc1OCC)-n1cccc1C(c1cccc([N+](=O)[O-])c1)NC2 (centres undefined)	-14.0	-4.3	-2.7	0.0	i	-0.2	0.652	-0.8	0.0
O=c1[nH]c(O)c(/C=C2\C=NN=C2c2ccccc2)c(=O)[nH]1	15.7	10.0	1.2	24.8	i	-3.9	0.709	5.2	5.6
Cc1ccc(-n2c(=S)[nH]c3ccc(C)cc3c2=O)cc1	-3.4	7.9	-6.4	·	i	·	·	2.1	·
COc1ccc(CCNCc2cccn2C)cc1OC	3.3	0.1	1.4	0.2	i	-3.9	0.689	-4.8	3.4
O=c1c2ccccc2nc(-c2ccccc2)n1-n1cccc1	·	·	·	-1.5	·	-0.6	0.697	2.3	23.7*
COc1ccc(NC(=O)c2cc([N+](=O)[O-])ccc2N2CCNCC2)cc1	6.6	1.8	-0.6	-6.3	i	-6.9	0.727	0.9	7.7
O=C(O)c1cccc(NC(=O)N2C[C@H]3C[C@@H](C2)c2cccc(=O)n2C3)c1	6.0	0.4	-5.4	-3.5	i	-4.7	0.695	1.3	0.8
O=P1(NCCCl)OCCCN1CCCl (centres undefined)	·	·	·	3.6	i	3.4	0.675	-0.1	1.5
Cn1c(O)c(C=NCCN2CCNCC2)c(=O)[nH]c1=O	17.6	16.7	3.6	-3.3	i	-2.6	0.657	5.4	1.8
COC(=O)[C@@H](N)CCCN=C(N)N[N+](=O)[O-]	14.1	23.4	0.7	-38.1	i	-8.8	·	2.6	2.0
O=c1c2ccccc2nc(CSc2ncnc3nc[nH]c23)n1-c1ccccc1	·	·	·	-4.4	·	0.6	0.694	1.4	0.7
COCCCNC(=O)c1c(N)n(Cc2ccco2)c2nc3ccccc3nc12	-0.9	-2.4	19.7	10.2	i	10.7	0.637	-1.3	i
Cc1ccccc1CCNCc1cc2cccc(C)c2[nH]c1=O	4.6	7.3	-1.2	-3.2	i	-7.9	0.616	0.8	-9.3
CCCCCCn1c(O)c(C=NC2CCN(Cc3ccccc3)CC2)c(=O)[nH]c1=O	·	·	·	-3.1	·	-13.4	0.685	-0.9	0.9
COc1ccc(NC(=O)[C@@H](NC(=O)N2C[C@H]3C[C@@H](C2)c2cccc(=O)n2C3)C(C)C)cc1	10.7	12.5	4.2	·	i	-3.4	0.705	0.3	3.0
N[C@@H](Cn1oc(=O)[nH]c1=O)C(=O)O	-21.9	-45.1	2.0	-16.0	i	-4.1	·	1.5	2.6
Cc1cccc(C)c1OP(N)(=O)OCC(F)(F)F (centres undefined)	·	·	·	1.5	·	5.4	·	-0.2	3.3

(further entries)
SMILES	Ecoli rRNA inh	Ecoli rRNA inh OD600	Ecoli rRNA inh RFP	ALR H2O2 inh	FGF22 binding	B2AR ag	Ecoli growth	HNF4A DNA FP	UCH37 DUB inh
CN1CCN(C(=O)COc2ccc(S(=O)(=O)N(C)Cc3ccccc3)cc2)CC1	-4.3	-12.3	-0.1	0.4	i	-10.2	0.657	3.1	0.6
Nc1cc(C(=O)Nc2ccccc2F)ccc1N1CC2CC(C1)c1cccc(=O)n1C2 (centres undefined)	4.3	1.1	1.0	·	i	·	·	1.6	·
CC1C2Cc3ccc(O)cc3[C@]1(C)CCN2CCc1ccccc1 (some centres undefined)	3.6	-0.7	4.2	·	i	8.3	0.743	6.8	6.9
FC(F)(F)c1cccc(C2NCc3ccccc3-n3cccc32)c1 (centres undefined)	-20.8	-45.5	-4.0	-6.4	i	-1.0	0.611	-0.6	4.7
CN1C(=O)NC(=O)C(C)(C2=CCCCC2)C1=O (centres undefined)	11.3	5.4	2.9	-3.8	i	-6.7	0.75	-1.1	0.6
O=C(Nc1cccc(OC(=O)N2CCCCC2)c1)N1CCOCC1	3.0	-5.1	0.5	-2.6	i	-2.3	0.712	-9.1	1.4
Oc1c(Cl)c(Cl)c(Cl)c(Cl)c1Cl	·	·	·	2.5	i	-2.5	0.471	-0.2	0.2
Cc1c(NP(=S)(C(C)(C)C)C(C)(C)C)c(=O)n(-c2ccccc2)n1C	10.9	6.7	0.0	0.4	i	-0.5	0.719	2.5	2.4
O=C(NCCN1CCOCC1)c1ccc(Cl)nc1	3.7	1.3	-2.5	-6.4	i	-7.5	0.686	-4.1	0.3
O=C(NCc1cccnc1)C(Cl)(Cl)Cl	·	·	·	-20.2	i	-8.3	0.683	-1.4	-1.1
COC(=O)C1=C(c2ccc(C(C)=O)cc2)C[C@@H]2CC[C@H]1N2C(=O)NCCCOC(C)C	18.8	24.6	-4.7	3.1	i	26.9	·	1.3	3.9
O=C1NC(=O)N(Cc2ccco2)C(=O)/C1=C/C=C/c1ccco1	2.0	-1.9	9.7	32.2	i	84.9*	0.728	-30.8	1.1
